Assay outcomes as filed in PubChem BioAssay.
ClpP mod: qHTS Assay for Activators of ClpP; purified B. subtilis ClpP, FRET peptide cleavage, 20 min; hit rate 1.9% among 340,000; ATP-dependent Clp protease proteolytic subunit (Bacillus subtilis (strain 168)), P80244; Potency, µM (top dose mostly 57.5 µM), for the others: at the highest dose activity change, negative = active; active = well fitted falling curve with a large enough effect; inconclusive = small, poorly fitted or top-dose-only effect; inactive = no such curve, though single readings can be large or run the other way; also: potency is read from the fitted curve at half-maximal effect; the source files actives as falling curves though it sought activators and does not explain the sign; nearly all actives have a fitted effect of over 65% in size; many hits overshoot -100%
Target sequence (P80244 whole entry, looked up): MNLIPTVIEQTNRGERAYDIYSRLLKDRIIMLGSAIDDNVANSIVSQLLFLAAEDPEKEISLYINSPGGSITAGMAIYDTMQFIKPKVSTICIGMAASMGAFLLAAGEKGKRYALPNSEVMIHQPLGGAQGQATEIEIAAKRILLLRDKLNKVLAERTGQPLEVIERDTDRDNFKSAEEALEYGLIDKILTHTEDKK
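ClpP 10 microg/mL final, pH 8 Tris/KCl buffer with BSA, glycerol, Tween-20; compound pinned in; FRET-FV substrate; RT 20 min; Ex320/Em430; ΔFRET vs ADEP 5.8 microM, DMSO, no enzyme.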
Sfp inh: Sfp phosphopantetheinyl transferase inhibition. Potency, µM, for inactives: max response, negative = inhibition, actives largely listed as inhibitors. Q9F4F7. AID 1490. hit rate 3.5% among 310,000. Biochemical Sfp PPTase activity, qHTS; active = well fitted inhibition curve with a large enough effect; inconclusive = small, poorly fitted or top-dose-only effect, or another doubt; inactive = no such curve, though single readings can be large or run the other way;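 also: the enzyme is Sfp with the accession as filed and its product quenches rhodamine fluorescence; potency is read from the fitted curve at half-maximal effect; 0% = enzyme reaction without inhibitor and -100% = no enzyme wells; top concentration of the series not given in the record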
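Buffer: 50 mM Hepes-Na pH 7.6, 10 mM MgCl2, 0.01% Nonidet P-40, 0.01% BSA. Enzyme 15 nM, pre-exposed to compound 15 min; substrates then added and fluorescence change tracked over 30 min.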
PINK1 expr mod: changes PINK1 expression. PINK1 immunofluorescence, high-content cytometry, 24 h. Potency, µM (titrated, usually from 76.6 µM), inactives show at the top dose activation (PINK1 increase), usual class: activators. hit rate 0.2% among 410,000. AID 624263; active = well fitted activation curve with a large enough effect; inconclusive = small, poorly fitted or top-dose-only effect; inactive = flat fitted curve, though single readings scatter; cell line not stated here;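 also: potency is read from the fitted curve at half-maximal effect; % of control where 0% means no effect; nearly all actives have a fitted effect of over 65% in size; a mitochondrial uncoupler was the plate control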
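PINK1 protein, normally rapidly degraded, was detected by immunofluorescence after 24 hour compound treatment of a stable cell line. Titration data (5 concentrations) came from laser-scanning cytometry, with CCCP-treated wells as controls.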
TRPML1 blocker: human mucolipin-1 channel inhibition; TRPML1-inducible cells, Ca2+ dye fluorescence, FDSS; active compounds read low; inhibition of EC80 agonist-evoked calcium signal; activity change, negative = inhibition, % (no concentration beside the values); hit rate 0.02% among 390,000; in the data active means activity change below about -50%; inconclusive means about -30% to -50%; inactive means above about -30%;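 also: stimulus is agonist 54-4 at its EC80 concentration; % is scaled to controls: 0 for no effect and ±100 for the full control effect; compound concentration not given in the record; the text of the record puts the active cut at -80%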
Target sequence (Q9GZU1 whole entry, looked up): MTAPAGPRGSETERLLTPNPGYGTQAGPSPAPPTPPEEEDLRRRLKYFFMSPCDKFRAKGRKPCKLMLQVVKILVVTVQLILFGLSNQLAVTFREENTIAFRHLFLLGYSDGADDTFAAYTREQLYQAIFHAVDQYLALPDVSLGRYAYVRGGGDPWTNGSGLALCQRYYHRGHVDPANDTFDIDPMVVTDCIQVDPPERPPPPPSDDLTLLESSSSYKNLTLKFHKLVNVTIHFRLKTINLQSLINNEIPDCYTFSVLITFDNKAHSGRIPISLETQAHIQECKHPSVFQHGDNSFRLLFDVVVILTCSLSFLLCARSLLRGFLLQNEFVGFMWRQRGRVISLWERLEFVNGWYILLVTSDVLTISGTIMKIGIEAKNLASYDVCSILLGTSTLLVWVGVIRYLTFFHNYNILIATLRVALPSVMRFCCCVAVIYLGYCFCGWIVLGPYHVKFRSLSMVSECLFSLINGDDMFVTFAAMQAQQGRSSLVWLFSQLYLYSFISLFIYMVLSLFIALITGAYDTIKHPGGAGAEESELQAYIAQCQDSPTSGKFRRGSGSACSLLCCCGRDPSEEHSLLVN
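TRPML1-DL cells, Tet-induced overnight (~16 h, 37 °C) at 1,500 cells/well, were loaded with Ca8 no-wash dye plus quencher for 45-90 min at room temperature. Compounds were pinned during FDSS kinetic reading; agonist 54-4 at EC80 (4 uM final) then added.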
TRPML1 agonist: agonists of human TRPML1 channel; activation, % (no concentration beside the values); Q9GZU1; hit rate 0.12% among 410,000; TRPML1-expressing cells, Ca2+ dye fluorescence, FDSS; host cell line not named in the record; reference of the full effect not given here; in the data active = activation above about 50%; inconclusive = about 30% to 50%; inactive = below about 30%; also: 0% is about no effect; the text of the record puts the active cut at 80%
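Calcium fluorescence on an FDSS kinetic reader gave the read-out. Tet-induced TRPML1-DL cells were plated overnight, dye-loaded (Ca8 with quencher, 45-90 min, room temperature, dark), then read 110 s after compound addition, and again 110 s after 4uM final 54-4 (EC80).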
Menin-MLL FL inh: displaces fluorescein MLL peptide from human menin. Fluorescence polarization, fluorescein-MLL peptide displacement from menin. FP activity change, % at 61.4 µM. 290,000 tested, under 10 active. AID 1766; inconclusive = falling polarisation curve, or a change in total fluorescence; inactive = total fluorescence flat and polarisation flat or rising; no compound was filed as active; the % refers to the polarisation; negative = inhibition;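 also: % of control where 0% means no effect; inhibitors lower the polarisation; unlabelled MLL peptide was the positive control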
TRPV1 PAM: enhances activation of the human vanilloid receptor TRPV1; Q8NER1; AID 540277; hit rate 0.02% among 320,000; potentiation, % at 8.33 µM; TRPV1-expressing cells, Fluo-8 calcium influx, capsaicin EC20 potentiation; host cell line not named in the record; control for the full effect not named in the record; active means potentiation above 80%; inconclusive means 30% to 80%; inactive means below 30%; also: 0% is about no effect
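TRPV1-expressing cells were cultured overnight at 35.5C and loaded with Fluo-8 calcium dye for 40 to 90 min at room temperature. After a 10 s baseline, compound was added and calcium influx was read kinetically for 3 min (ex 480/em 520 nm).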
Starred values were filed as active, the others as inactive; [ ] = another dose, or the depositor's remark.

Results for COc1ccc(NC(=O)N2CCCn3nc(C)cc32)cc1OC ?
ClpP mod: -2.5%; PINK1 expr mod: 1.7%; TRPML1 blocker: -9.4; TRPML1 agonist: 0.4

Results for CCOC(=O)CSc1ccc(S(=O)(=O)N(CC)CC)cc1[N+](=O)[O-] ?
ClpP mod: 1.8%; Sfp inh: 2.1%; PINK1 expr mod: -0.5%; TRPML1 blocker: 32.4; TRPML1 agonist: 0.6; Menin-MLL FL inh: -1.7; TRPV1 PAM: -10.0

Results for O=C(NCc1cccc(C(F)(F)F)c1)C1CC(c2c(Cl)cccc2Cl)=NO1 (centres undefined) ?
ClpP mod: 1.3%; Sfp inh: 5.8%; PINK1 expr mod: 1.5%; TRPML1 blocker: -7.5; TRPML1 agonist: 0.6; Menin-MLL FL inh: 0.9; TRPV1 PAM: 8.9

Results for COc1ccc(NC(=S)N2CCC(Cc3ccccc3)CC2)cc1OC ?
ClpP mod: 0.4%; Sfp inh: 0.6%; PINK1 expr mod: 1.5%; TRPML1 blocker: -4.4; TRPML1 agonist: 0.6; Menin-MLL FL inh: 0.1; TRPV1 PAM: 7.1

What do the screens show for `Cc1cc(F)ccc1S(=O)(=O)Nc1ccc(C(=O)N(C)Cc2ccco2)cc1`?
ClpP mod: 1.2%; PINK1 expr mod: 0.1%; TRPML1 blocker: -8.3; TRPML1 agonist: -0.6; TRPV1 PAM: -5.9

Results for COCCn1c(SCC(=O)c2ccc(F)cc2)nnc1C(C)C ?
ClpP mod: 1.1%; Sfp inh: 56.2µM*; PINK1 expr mod: -1.0%; TRPML1 blocker: -9.0; TRPML1 agonist: 2.5; Menin-MLL FL inh: 2.5; TRPV1 PAM: -1.8

What do the screens show for `O=C(Cn1c(=O)c(=O)n(Cc2ccccc2)c2ccc(Cl)cc21)Nc1cccc(F)c1`?
ClpP mod: inconclusive; Sfp inh: inconclusive; PINK1 expr mod: 11.9%; TRPML1 blocker: 10.7; TRPML1 agonist: 0.3; Menin-MLL FL inh: 6.3; TRPV1 PAM: 11.8

Results for COc1ccnc(Oc2cc(Cl)cc(Cl)c2)c1C#N ?
Sfp inh: 6.1%; PINK1 expr mod: 1.5%; TRPML1 blocker: -12.6; TRPML1 agonist: 1.2; Menin-MLL FL inh: 0.3; TRPV1 PAM: 2.0

What do the screens show for `Nc1[nH]n(-c2ccccc2)c(=O)c1N=Nc1ccc2c(c1)OCCO2`?
ClpP mod: -7.3%; Sfp inh: -1.1%; PINK1 expr mod: 4.8%; TRPML1 blocker: 10.1; TRPML1 agonist: 0.6; Menin-MLL FL inh: -1.4; TRPV1 PAM: 7.4

What do the screens show for `O=C(Nc1cnccc1C(F)(F)F)NC1CCCCC1`?
Sfp inh: 15.4%; PINK1 expr mod: 1.8%; TRPML1 blocker: 22.6; TRPML1 agonist: 0.2; Menin-MLL FL inh: 5.5; TRPV1 PAM: -8.7

How did CC1CC=CC2C1C(=O)N(Cc1ccccc1)C2c1ccc2ccccc2c1 (centres undefined) do in these assays?
Sfp inh: inconclusive; TRPML1 blocker: 67.7; TRPML1 agonist: 3.6; Menin-MLL FL inh: -2.4

Results for CCCCNc1c([N+](=O)[O-])c(=O)n(C)c2ccccc12 ?
Sfp inh: 7.3%; PINK1 expr mod: 0.7%; TRPML1 blocker: -22.4; TRPML1 agonist: 0.3; Menin-MLL FL inh: 0.0; TRPV1 PAM: -4.6

Results for COc1cccc(N2CCN(C(=O)c3cc4c(=O)oc5ccc(C)cc5c4s3)CC2)c1 ?
ClpP mod: -0.1%; PINK1 expr mod: 1.3%; TRPML1 blocker: 6.5; TRPML1 agonist: -1.0

How did Cc1cc(NC(=O)CN2C(=O)NC3(CCCCC3C)C2=O)no1 (centres undefined) do in these assays?
ClpP mod: 0.6%; Sfp inh: 7.1%; PINK1 expr mod: 1.4%; TRPML1 blocker: -16.3; TRPML1 agonist: 0.3; Menin-MLL FL inh: 1.7; TRPV1 PAM: 11.1

What do the screens show for `COCC(C)n1c(C)cc(C(=O)COC(=O)c2c(NC(C)=O)sc(C)c2C)c1C` (centres undefined)?
ClpP mod: -0.8%; Sfp inh: -0.7%; PINK1 expr mod: 6.7%; TRPML1 blocker: -7.1; TRPML1 agonist: 0.3; Menin-MLL FL inh: 1.2; TRPV1 PAM: -4.8

What do the screens show for `CCCCOc1ccc(C(=O)Nc2ccc(-c3cc4ccccc4oc3=O)cc2)cc1`?
ClpP mod: -19.0%; PINK1 expr mod: 4.0%; TRPML1 blocker: 25.4; TRPML1 agonist: -0.2

How did Cc1ccc(C2CCN(C(=S)Nc3cccc(C)c3)C2)cc1 (centres undefined) do in these assays?
ClpP mod: -1.6%; Sfp inh: 13.0%; PINK1 expr mod: 1.6%; TRPML1 blocker: 71.2; TRPML1 agonist: 0.1; Menin-MLL FL inh: -1.9; TRPV1 PAM: 0.4

What do the screens show for `Cc1cc(O)ccc1-c1ccc2nncn2c1`?
ClpP mod: -16.2%; PINK1 expr mod: 5.2%; TRPML1 agonist: -0.2

How did COc1ccccc1OCCSc1nc2ccccc2n1CC(O)CO (centres undefined) do in these assays?
ClpP mod: 0.4%; Sfp inh: 1.1%; PINK1 expr mod: 1.9%; TRPML1 blocker: -1.9; TRPML1 agonist: -0.3; Menin-MLL FL inh: 3.4; TRPV1 PAM: 3.3

How did CC(C)N(C(=O)Cn1cc(SCC(=O)Nc2ccccc2F)c2ccccc21)C(C)C do in these assays?
ClpP mod: 2.4%; PINK1 expr mod: 0.1%; TRPML1 blocker: -25.5; TRPML1 agonist: 3.3

How did CC(=O)c1sc(NC(=O)COc2ccc(Br)cc2)nc1C do in these assays?
Sfp inh: 14.1%; PINK1 expr mod: 14.4%; TRPML1 blocker: -1.6; TRPML1 agonist: -1.0; Menin-MLL FL inh: 10.4; TRPV1 PAM: 10.0

How did Cc1cccc(NC(=O)CSc2nnc(NC(=O)C3CCC3)s2)c1 do in these assays?
Sfp inh: 1.7%; PINK1 expr mod: 1.5%; TRPML1 blocker: 8.5; TRPML1 agonist: 0.7; Menin-MLL FL inh: -1.5; TRPV1 PAM: 0.7

What do the screens show for `O=C1CCCN1c1ccc(S(=O)(=O)N2CCN(c3ccccc3)CC2)cc1`?
Sfp inh: 4.4%; PINK1 expr mod: 0.2%; TRPML1 blocker: 1.6; TRPML1 agonist: -0.2; Menin-MLL FL inh: 1.9; TRPV1 PAM: 16.0

How did Cc1ccc(NC(=O)c2nnn(-c3ccc4c(c3)OCCO4)c2N)cc1 do in these assays?
Sfp inh: 1.9%; PINK1 expr mod: 3.3%; TRPML1 blocker: 18.7; TRPML1 agonist: -0.3; Menin-MLL FL inh: -3.1; TRPV1 PAM: 0.7

Results for Cc1cccc(CN2CCN(C(=O)CCl)CC2)c1 ?
ClpP mod: 1.5%; Sfp inh: 3.3%; PINK1 expr mod: 0.0%; TRPML1 blocker: 39.1; TRPML1 agonist: 1.3; Menin-MLL FL inh: 5.6; TRPV1 PAM: 5.7

Results for CCOC(=O)CN1C(=O)S/C(=C/C=C/c2ccc(N(C)C)cc2)C1=O ?
Sfp inh: 6.0%; PINK1 expr mod: 3.0%; TRPML1 blocker: -2.3; TRPML1 agonist: inconclusive; Menin-MLL FL inh: inconclusive; TRPV1 PAM: 4.7

Results for Cc1ccc(N=Cc2cc(Br)cc(Cl)c2O)cc1 ?
Sfp inh: 4.9%; PINK1 expr mod: 2.4%; TRPML1 blocker: 10.5; TRPML1 agonist: -0.2; Menin-MLL FL inh: inconclusive; TRPV1 PAM: 10.8

What do the screens show for `O=C(c1c(F)cccc1F)N1CCN(c2ncccn2)CC1`?
ClpP mod: inconclusive; Sfp inh: -2.1%; PINK1 expr mod: 13.3%[38.3 µM]; TRPML1 blocker: -17.9; TRPML1 agonist: -0.3; Menin-MLL FL inh: -3.4; TRPV1 PAM: -23.0

Results for COc1ccc(-c2cn(Cc3ccc(C(N)=O)cc3)c(-c3ccc(Cl)nc3)n2)cc1 ?
ClpP mod: -19.7%; PINK1 expr mod: -0.6%; TRPML1 blocker: -13.3; TRPML1 agonist: -0.1; TRPV1 PAM: -7.0

What do the screens show for `Cc1ccc(C(=O)Nc2ccccc2C(=O)NC(C(=O)O)C(C)C)cc1` (centres undefined)?
ClpP mod: -0.3%; Sfp inh: 27.9%; PINK1 expr mod: 6.7%[38.3 µM]; TRPML1 blocker: -3.1; TRPML1 agonist: -0.1; Menin-MLL FL inh: -0.8; TRPV1 PAM: 1.5

Results for COc1cccc(-c2ccc(NC(=O)C3CCCN(Cc4cnn(C)c4C)C3)cc2)c1 (centres undefined) ?
ClpP mod: -6.3%; Sfp inh: 1.0%; PINK1 expr mod: 1.0%; TRPML1 blocker: -14.6; TRPML1 agonist: 0.0; TRPV1 PAM: 8.8

Results for COC(=O)CNC(=O)CN1C(=O)NC2(CCCc3ccccc32)C1=O (centres undefined) ?
ClpP mod: 0.3%; Sfp inh: 7.9%; PINK1 expr mod: 0.0%; Menin-MLL FL inh: 5.6; TRPV1 PAM: 0.8

What do the screens show for `COc1ccc(N(CC(=O)NCc2ccccc2)S(=O)(=O)c2c(C)n[nH]c2C)cc1`?
ClpP mod: -3.7%; Sfp inh: 21.4%; PINK1 expr mod: -0.1%; TRPML1 blocker: 15.6; TRPML1 agonist: -1.2; Menin-MLL FL inh: 0.1; TRPV1 PAM: -15.2

How did CCCCN(C)C(=O)CCC(=O)Nc1ccc2nc(N3CCN(C)CC3)cc(C)c2c1 do in these assays?
Sfp inh: -19.2%; PINK1 expr mod: 0.0%; TRPML1 blocker: 9.6; TRPML1 agonist: 0.5; Menin-MLL FL inh: 1.1; TRPV1 PAM: 11.4

How did CCn1c(/C=C/N(C(C)=O)c2ccccc2)[n+](CCCS(=O)(=O)[O-])c2cc(Cl)c(Cl)cc21 do in these assays?
Sfp inh: 27.6%; PINK1 expr mod: -0.2%; TRPML1 blocker: 5.5; TRPML1 agonist: -0.3; Menin-MLL FL inh: -4.8; TRPV1 PAM: 0.1

How did CN[C@H](C(=O)NC[C@H]1O[C@@H](n2cnc3c(N)ncnc32)[C@H](O)[C@@H]1O)[C@@H](C)OCc1ccccc1 do in these assays?
ClpP mod: -3.5%; PINK1 expr mod: -0.8%; TRPML1 blocker: 3.9; TRPML1 agonist: 0.1
